# Assay outcomes from PubChem.
# gsp antag – qHTS for Antagonists of gsp, the Etiologic Mutation Responsible for Fibrous Dysplasia/McCune-Albright Syndrome: qHTS; gsp-mutant cells, cAMP HTRF, 30 min; control for the full effect not named in the record; Potency, µM (doses to about 76.9 µM), without a hit: top-dose activity change, negative = inhibition, hits mostly inhibitors; 340,000 compounds, 0.4% hits; AID 624288, 2012; active = falling curve of any shape with a large fitted effect; inconclusive = falling curve, mostly with a smaller effect; inactive = flat or rising curve; cell line not stated here;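 note: intracellular cAMP measured with PDE inhibitor Ro 20-1724 present during compound exposure; potency is the fitted concentration of half-maximal effect; % is set by controls: 0 for no effect and ±100 for the full control effect; nearly all actives have a fitted effect of over 65% in size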
#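 HTRF cAMP read-out (cAMP-d2 plus anti-cAMP antibody-K in lysis buffer, 30 min RT). Before lysis, cells are exposed to compounds with […] for 30 min at 37C in DPBS containing Ca/Mg, BSA and Tween 20.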
# gsp agonist – qHTS for Agonist of gsp, the Etiologic Mutation Responsible for Fibrous Dysplasia/McCune-Albright Syndrome: qHTS | gsp mutant cells, cAMP HTRF, 30 min; control for the full effect not named in the record | Potency, µM (top dose mostly 76.9 µM), without a hit: top-dose activation (cAMP increase), usual class: activators | 340,000 compounds, 0.13% hits; active = well fitted activation curve with a large enough effect; inconclusive = small, poorly fitted or top-dose-only effect, or another doubt; inactive = no such curve, though single readings can be large or run the other way; cell line not stated here;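 note: phosphodiesterase inhibitor Ro 20-1724 added with compounds to block cAMP breakdown; potency is the fitted concentration of half-maximal effect; nearly all actives have a fitted effect of over 60% in size; about a fifth of the inactives were tested at one dose only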
#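 Cells stably selected in G418 were plated at 2000/well, grown 16-24 hr, then given compounds in DMSO with the PDE inhibitor […] (300 uM solution added) for 30 min at 37C; cAMP was read by HTRF.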
# TRPML1 agonist – qHTS for Agonists of the Human Mucolipin Transient Receptor Potential 1 (TRPML1); 410,000 compounds, 0.12% hits; TRPML1-expressing cells, Ca2+ dye fluorescence, FDSS; host cell line not named in the record; reference of the full effect not given here; AID 624414, 2012; activation, % (concentration not given with the values); Mucolipin-1 (Homo sapiens), Q9GZU1; in the data active = activation above about 50%; inconclusive = about 30% to 50%; inactive = below about 30%; note: 0% is about no effect; the text of the record puts the active cut at 80%
# Target sequence (Q9GZU1 whole entry, looked up): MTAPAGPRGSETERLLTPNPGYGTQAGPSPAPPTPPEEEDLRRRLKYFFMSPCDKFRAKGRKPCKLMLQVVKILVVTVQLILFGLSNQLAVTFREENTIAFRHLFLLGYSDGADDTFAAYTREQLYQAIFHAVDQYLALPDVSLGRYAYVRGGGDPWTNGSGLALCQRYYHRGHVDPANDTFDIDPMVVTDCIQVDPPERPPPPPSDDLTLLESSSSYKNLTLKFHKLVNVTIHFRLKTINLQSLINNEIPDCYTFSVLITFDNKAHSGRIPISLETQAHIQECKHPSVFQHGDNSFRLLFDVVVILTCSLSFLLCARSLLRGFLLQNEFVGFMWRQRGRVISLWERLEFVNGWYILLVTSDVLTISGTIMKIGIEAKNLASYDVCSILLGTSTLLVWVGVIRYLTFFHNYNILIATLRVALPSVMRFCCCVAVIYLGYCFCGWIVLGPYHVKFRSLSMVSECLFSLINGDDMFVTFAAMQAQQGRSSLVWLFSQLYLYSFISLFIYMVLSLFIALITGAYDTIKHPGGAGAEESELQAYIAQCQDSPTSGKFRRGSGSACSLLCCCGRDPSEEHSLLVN
#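 Tetracycline-induced TRPML1-DL cells are seeded and incubated overnight before loading with a no-wash Ca2+ dye and quencher. Agonist activity is taken from the 110 s fluorescence read following compound pin-transfer on an FDSS, before EC80 54-4 challenge.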
# ClpP mod – qHTS Assay for Activators of ClpP; ATP-dependent Clp protease proteolytic subunit (Bacillus subtilis (strain 168)), P80244; AID 651965, 2013; 340,000 compounds, 1.9% hits; purified B. subtilis ClpP, FRET peptide cleavage, 20 min; Potency, µM (series often up to 57.5 µM), inactives show at the highest dose activity change, negative = active; active = well fitted falling curve with a large enough effect; inconclusive = small, poorly fitted or top-dose-only effect; inactive = no such curve, though single readings can be large or run the other way; note: potency is the fitted concentration of half-maximal effect; the source files actives as falling curves though it sought activators and does not explain the sign; nearly all actives have a fitted effect of over 65% in size; many hits overshoot -100%
# Target sequence (P80244 whole entry, looked up): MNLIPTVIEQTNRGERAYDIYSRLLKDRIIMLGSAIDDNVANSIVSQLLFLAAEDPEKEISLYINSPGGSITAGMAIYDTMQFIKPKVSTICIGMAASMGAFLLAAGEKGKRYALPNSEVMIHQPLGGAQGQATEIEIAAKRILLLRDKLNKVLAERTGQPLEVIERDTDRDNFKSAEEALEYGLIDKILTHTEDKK
#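 Buffer: 100 mM Tris/HCl pH8, 100 mM KCl, 0.05% low protease BSA, 2.5% glycerol, 0.01% Tween-20. ClpP 10 microg/mL final; 20 min RT; delta FRET normalized to ADEP and DMSO controls.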
# TRPML1 inh – qHTS for Inhibitors of the Human Mucolipin Transient Receptor Potential 1 (TRPML1); Mucolipin-1 (Homo sapiens), Q9GZU1; TRPML1-inducible cells, Ca2+ dye fluorescence, FDSS; stronger effect = lower value; inhibition of EC80 agonist-evoked calcium signal; activity change, negative = inhibition, % (concentration not given with the values); 390,000 compounds, 0.02% hits; in the data active means activity change below about -50%; inconclusive means about -30% to -50%; inactive means above about -30%;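 note: stimulus is agonist 54-4 at its EC80 concentration; % is set by controls: 0 for no effect and ±100 for the full control effect; the text of the record puts the active cut at -80%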
#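 TRPML1-DL cells, Tet-induced overnight (~16 h, 37 °C) at 1,500 cells/well, were loaded with Ca8 no-wash dye plus quencher for 45-90 min at room temperature. Compounds were pinned during FDSS kinetic reading; agonist 54-4 at EC80 (4 uM final) then added.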
# Menin MLL FP FL – qHTS Assay for Inhibitors Targeting the Menin-MLL Interaction in MLL Related Leukemias: Competition With Fluorescein Labeled MLL-derived Peptide; 290,000 tested, under 10 active; Fluorescence polarization, fluorescein-MLL peptide displacement from menin; FP activity change, % at 61.4 µM; inconclusive = falling polarisation curve, or a change in total fluorescence; inactive = total fluorescence flat and polarisation flat or rising; no compound was filed as active; the % refers to the polarisation; negative = inhibition;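 note: % of control where 0% means no effect; inhibitors lower the polarisation; unlabelled MLL peptide was the positive control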
# * = called active by the depositor; ? = inconclusive; . = no result given; [ ] = remark or other dose.
SMILES,gsp antag,gsp agonist,TRPML1 agonist,ClpP mod,TRPML1 inh,Menin MLL FP FL
CC(=O)N1c2ccc(S(=O)(=O)NCCC(=O)Nc3ccc(C)c(F)c3)cc2CC1C (configuration not stated),11%,1%,-0.1,.,-7,54[activator]
Cc1cccc(NC(=O)CN2C(=O)N/C(=C\c3ccc(N4CCOCC4)cc3)C2=O)c1,12%,-2%,2.6,-0.3%,2,-0.5
O=C(N/N=C/c1sc(N2CCOCC2)nc1-c1ccccc1)c1cccc(S(=O)(=O)N2CCCC2)c1,-8%,-30%[15.4 µM],-0.4,.,-9,?
O=C1NC2NC(=O)N(C(Cc3ccccc3)C(=O)O)C2N1 (configuration not stated),7%,-2%,-0.7,1.2%,4,0.2
O=C(O)C1CCN(C(=O)CCN2C(=O)S/C(=C\c3ccccc3)C2=O)CC1,-25%,18%,-0.3,3.8%,4,1.6
O=c1oc2ccccc2cc1-c1nc2ccccc2o1,-19%,-2%,0.7,31%,35,1.7
CCCC12CN3CC(C)(CN(C1)C3c1ccco1)C2=O (configuration not stated),2%,4%[15.4 µM],-0.2,.,2,4.6
CN1CCC(=NNC(=O)CN(c2ccccc2)S(=O)(=O)c2ccccc2)CC1,8%,-7%[15.4 µM],-0.5,-3.2%,-7,.
C[C@@H](OC(=O)N1CCCCC1)[C@H]1O[C@]2(C)CCCC[C@H]1O2,3%,18%,-0.6,-3.1%,2,.
COC(=O)c1ccc(C2c3c(-c4ccccc4O)n[nH]c3C(=O)N2Cc2ccncc2)cc1 (configuration not stated),.,.,0.4,-0.3%,-2,.
Cc1ccc2[nH]ccc(=O)c2c1,9%,.,-0.5,-9.0%,34,-0.5
N#Cc1cccc(C(=O)OCC(=O)NC(=O)NC2CCCCC2)c1,6%,-11%[15.4 µM],0.4,.,-13,.
O=C(CSc1nc2ccccc2c(=O)n1Cc1ccco1)NCc1ccco1,2%,-2%,0.4,0.4%,27,0.0
N#CC(OC(=O)c1ccccc1)c1cccc([N+](=O)[O-])c1 (configuration not stated),-5%,?,1.9,.,43,.
O=C(NN=Cc1ccc(O)cc1)c1ccccc1NS(=O)(=O)c1cccs1,-27%,1%,0.2,-13%,12,.
NC(=O)c1ccsc1NC(=O)COc1ccccc1,-6%,35%,3.1,-3.4%,41,-0.5
Cc1cccn2c(=O)c(/C=C(\C#N)C(=O)NC3CCS(=O)(=O)C3)c(N3CCC(C(N)=O)CC3)nc12 (configuration not stated),17%,?,-0.3,0.0%,-25,3.6
Cc1ccc(-c2cc(C(=O)N3CCN(C4CCS(=O)(=O)C4)CC3)c3ccccc3n2)cc1 (configuration not stated),2%,2%,-0.6,?,10,.
c1ccc(Cc2c(-c3ccccc3)nc3c4ccccc4ccn23)cc1,.,19%,-0.6,32µM*,-20,.
CC(=O)c1ccc(NC(=O)c2ccc3nc(C)sc3c2)cc1,-10%,-10%,-0.6,-1.6%,20,0.0
CCCCc1cc(=O)oc2cc(C)cc(OC(C)C(=O)NCc3ccncc3)c12 (configuration not stated),1%,28%,0.0,4.0%,10,.
CN(C(=O)CCc1nc(-c2ccccc2F)no1)c1ccc(Cl)cc1,.,.,2.8,-3.7%,6,.
CCC1(c2ccccc2)NC(=O)N(CC(=O)Nc2cc(S(=O)(=O)N3CCCCC3)ccc2N(C)C)C1=O (configuration not stated),-18%,1%[15.4 µM],-1.0,.,-11,.
CCOc1cc(S(=O)(=O)N2CCCCCC2)ccc1F,5%,-25%,0.5,-0.4%,0,0.1
CCn1nc(C)c2c(-c3ccccc3)cc(=O)n(C(C)C(=O)NCc3ccccc3OC)c21 (configuration not stated),.,.,2.0,3.9%,-2,.
CCc1ccc(OCCNC(=O)c2cccs2)cc1,3%,12%,2.5,0.0%,3,-0.3
COC(=O)CCC/C=C1/SCC(NC(=O)c2ccccc2)C1=O (configuration not stated),1%,-10%,-0.9,0.7%,-3,?
Cc1cc(C)n2nc(C(=O)OCC(=O)N(C)C3CCS(=O)(=O)C3)nc2n1 (configuration not stated),13%,-19%,-0.1,-2.5%,5,.
Cc1ccc(C(=O)Nc2nc(-c3cccnc3)cs2)o1,-8%,-30%,-0.1,1.7%,-9,3.6
O=C(C=Cc1ccccn1)c1ccccc1O,12%,11%,0.0,.,33,.

# 4 entries from above, as labelled records:
> CCc1ccc(OCCNC(=O)c2cccs2)cc1
  gsp antag: 3%	gsp agonist: 12%	TRPML1 agonist: 2.5	ClpP mod: 0.0%	TRPML1 inh: 3	Menin MLL FP FL: -0.3
> COC(=O)CCC/C=C1/SCC(NC(=O)c2ccccc2)C1=O (configuration not stated)
  gsp antag: 1%	gsp agonist: -10%	TRPML1 agonist: -0.9	ClpP mod: 0.7%	TRPML1 inh: -3	Menin MLL FP FL: ?
> Cc1cc(C)n2nc(C(=O)OCC(=O)N(C)C3CCS(=O)(=O)C3)nc2n1 (configuration not stated)
  gsp antag: 13%	gsp agonist: -19%	TRPML1 agonist: -0.1	ClpP mod: -2.5%	TRPML1 inh: 5	Menin MLL FP FL: .
> Cc1ccc(C(=O)Nc2nc(-c3cccnc3)cs2)o1
  gsp antag: -8%	gsp agonist: -30%	TRPML1 agonist: -0.1	ClpP mod: 1.7%	TRPML1 inh: -9	Menin MLL FP FL: 3.6

# (cont.)
SMILES,gsp antag,gsp agonist,TRPML1 agonist,ClpP mod,TRPML1 inh,Menin MLL FP FL
CC1(C)N=C(c2ccccn2)C(C)(C)N1O,-1%,-25%,-0.2,-1.2%,-14,-0.3
Cn1cccc1C(C#N)(CC#N)c1cccc(F)c1C#N (configuration not stated),-10%,22%[15.4 µM],-1.2,-0.1%,48,-4.9
Nc1c(-c2nc(-c3ccc4c(c3)OCO4)cs2)c2ccccn2c1C(=O)c1ccccc1,.,.,0.5,-3.7%,-20,.
CCOCCc1c(O)nc(SCC(=O)NCc2ccco2)[nH]c1=O,9%,2%,0.4,-2.2%,-3,4.6
Cn1nc(-c2ccc3c(c2)OCCO3)c2ccccc2c1=O,3%,?,1.7,.,23,2.4
Cc1cc(=O)[nH]c(SCC(=O)Nc2nc(-c3ccccc3)c(-c3ccccc3)o2)n1,-10%,18%[15.4 µM],1.3,.,13,-6.3
CCN(CC(=O)Nc1ccc(OC)cc1)C(=O)c1cc2c(s1)CCCCC2,-4%,-9%,1.4,-4.9%,32,.
COC(=O)c1ccc(NC(=O)CSc2nnnn2C2CCCCC2)cc1,4%,-28%,-0.3,-4.9%,-12,0.7
CCCc1nnc(SCC(=O)Nc2nccs2)o1,6%,6%,-0.2,.,0,-4.8
CC(C)(C)c1ccc(S(=O)(=O)NCC(=O)N2CCN(C(=O)c3ccco3)CC2)cc1,-16%,-1%,2.0,-1.7%,-6,2.9
Nc1nonc1C(=O)NCCNc1ccc([N+](=O)[O-])cn1,-36%,18%[15.4 µM],-0.4,.,17,0.4
O=C(c1ccc(N2CN(C(=O)c3ccco3)c3nc4ccccc4nc32)cc1)N1CCOCC1,-18%,-17%,0.6,-12%,-3,2.2
CCN(CC(=O)Nc1ccc(NC(C)=O)cc1)C(=O)c1cccc(S(=O)(=O)N2c3ccccc3CC2C)c1 (configuration not stated),8%,-13%[15.4 µM],2.0,.,1,.
OCCNC(=S)Nc1ccc(Cl)c(Cl)c1,-4%,-30%[inhibitor],0.6,-2.0%,-7,1.5
COCCNC(=O)C(c1ccc(Cl)cc1)N(CCOC)C(=O)CCC(=O)Nc1nccs1 (configuration not stated),10%,23%,0.3,-0.7%,40,2.8
COc1ccc(C(=O)CSc2nnc(-c3ccco3)n2CC2CCCO2)cc1 (configuration not stated),-25%,?,1.5,0.0%,-11,0.4
CCc1ccc(-c2cc3c(=O)n(CC(=O)NCc4ccccc4F)ncn3n2)cc1,9%,?,-0.5,-4.4%,1,.
COc1ccc2sc(C)[n+](C)c2c1,7%,?,0.0,.,-17,-0.7
CCc1ccc(C(=O)COC(=O)CCc2nc3ccccc3c(=O)[nH]2)cc1,8%,-37%[inhibitor],2.1,-25%,-10,.
CSCCCN1CC[C@@H](N2CCN(c3ccccc3F)CC2)[C@H](O)C1,11%,-2%,-0.4,-1.7%,19,-3.4
COc1ccc(NS(=O)(=O)c2cccc(C(=O)NNC(=O)COc3ccccc3)c2)cc1,-5%,3%[15.4 µM],1.1,-2.9%,-8,.
COc1ccc(/C=C/C(=O)Nc2ccc3nc4c(c(Nc5ccc(OC)c(OC)c5)c3c2)CCCC4)cc1,.,.,1.2,-0.1%,-1,.
CC(=O)c1cc(N2CCOCC2)ccc1[N+](=O)[O-],9%,-5%[15.4 µM],1.3,.,9,-0.4
O=C(O)c1cccc(CSc2nnc(-c3cccnc3)o2)c1,0%,?,0.0,-6.6%,14,-3.9
OC(c1ccc(F)cc1)c1nc(-c2cccc(C(F)(F)F)c2)cs1 (configuration not stated),.,.,0.7,-1.2%,44,.
Nc1cc(OC(=O)c2ccc(F)cc2)nn1S(=O)(=O)c1ccc(F)cc1,10%,-4%[15.4 µM],-0.5,1.2%,19,0.8
O=C(CSc1nc2ccccc2c(=O)n1-c1ccccc1)N1CCc2ccccc2C1,-5%,-18%[15.4 µM],1.3,-0.6%,-1,2.0
COc1ccc(OC)c2[nH]c(=O)c(CCNC(=O)C(=O)c3c[nH]c4ccccc34)cc12,?,6%,1.4,1.2%,6,1.6
CCc1ccc2nc(N(CCN(CC)CC)C(=O)c3ccco3)sc2c1,.,.,0.8,-2.7%,-16,.
COc1ccc(NC(=S)NNC(=O)Cn2nc(C(F)F)cc2C(F)F)cc1,5%,-39%[inhibitor],-0.5,-21%,0,-1.7
CC(NC(=O)COc1ccccc1)C(=O)N1CCN(c2ccccc2)CC1 (configuration not stated),13%,15%,0.0,-0.7%,-9,.
CC(=O)NC(Cc1ccc(C(C)C)cc1)C(=O)NC1CCN(c2nc(C)cc(C)n2)CC1 (configuration not stated),20%,0%,-0.7,?,53,-1.4
O=C(NN1C(=O)C2C(C1=O)C1C=CC2C12CC2)c1ccc(Cl)cc1 (configuration not stated),9%,24%,1.0,.,5,-1.1
Cc1noc(C)c1NC(=O)N(C)C[C@@H]1Oc2ccc(NC(=O)CCC(F)(F)F)cc2CC(=O)N([C@@H](C)CO)C[C@@H]1C,11%,.,-0.1,0.0%,-2,.
CCOc1ccc2oc(C(=O)N(CC)CC(=O)Nc3c(F)cccc3F)c(C)c2c1,-17%,-2%,-0.3,?,1,.
COc1ccc(NC(=O)N2CCC(O)(c3cccnc3)CC2)c(OC)c1,4%,-3%,-0.3,-1.6%,-1,2.2
